Bioassay records: PubChem, National Center for Advancing Translational Sciences (NCATS)
2A StopGo – lowers the luciferase signal of an FMDV 2A StopGo reporter; 410,000 tested, 1.2% active; human cells with a luciferase reporter of 2A StopGo recoding; control for the full effect not named in the record; Potency, µM (titrated, usually from 57.9 µM), for the others: at the top dose signal change, negative = less light; active = well fitted falling curve with a large enough effect; inconclusive = small, poorly fitted or top-dose-only effect; inactive = no such curve, though single readings can be large or run the other way; tested in HEK293T cells; further: on the % scale 0 is the no-effect control and ±100 the full control effect; nearly all actives have a fitted effect of over 45% in size; luciferase light after 4 h
RE007 growth inh – less growth of the S. pombe RE007 Vpr strain; S. pombe RE007 Vpr strain, BacTiter-Glo ATP luminescence, 24 h; control for the full effect not named in the record; Potency, µM (top dose mostly 92.2 µM), for the others: top-dose activity change, negative = less growth; 360,000 tested, 0.21% active; active = well fitted falling curve with a large enough effect; inconclusive = small, poorly fitted or top-dose-only effect; inactive = no such curve, though single readings can be large or run the other way;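 further: on the % scale 0 is the no-effect control and ±100 the full control effect; nearly all actives have a fitted effect of over 50% in size; the assay follows cell death caused by Vpr and the record does not say whether a fall means rescue or toxicity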
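Fission yeast strain RE007, carrying one chromosomally integrated HIV-1 vpr copy, was seeded at OD 0.01 in PMG+AL medium with 23 nL pinned compound. After 24 h at 30 °C and 99% humidity, viability was read by BacTiter-Glo luminescence.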
SARS PLpro yeast – blocks SARS-CoV papain-like protease in a yeast assay. S. cerevisiae expressing SARS-CoV PLpro, growth rescue; control for the full effect not named in the record. Potency, µM (highest dose often 32.9 µM), without a hit: top-dose activity, positive = growth rescue. 330,000 tested, 0.19% active. AID 485353; active means well fitted rising curve with a large enough effect; inconclusive means small, poorly fitted or top-dose-only effect; inactive means no such curve, though single readings can be large or run the other way; further: 0% is about no effect; nearly all actives have a fitted effect of over 55% in size; growth read by luminescence after 48 h
* hit, by the source's call; ? = inconclusive; & = joins results of further samples; [ ] = dose if it differs, or a comment. Potency means the concentration at half of the fitted maximal effect. Not all compounds are listed. The share of hits here may be higher or lower than overall.

Sample of the layout:
SMILES | 2A StopGo | RE007 growth inh | SARS PLpro yeast
Cc1cc(Br)ccc1NC(=O)CNC(=O)c1cnn(C)c1 | -1% | 0% | 4%
CC1CCN(c2ccc3c(c2)S(=O)(=O)c2cccc(C(=O)NCc4ccc(F)cc4)c2C3=O)CC1 | 24% | -8% | -2%

Results, from the start:
SMILES | 2A StopGo | RE007 growth inh | SARS PLpro yeast
Cc1cc(Br)ccc1NC(=O)CNC(=O)c1cnn(C)c1 | -1% | 0% | 4%
CC1CCN(c2ccc3c(c2)S(=O)(=O)c2cccc(C(=O)NCc4ccc(F)cc4)c2C3=O)CC1 | 24% | -8% | -2%
C#CCOCCOCCOCCNc1nc(N2CCN(C(=O)[C@H](CCCN=C(N)N)n3cc(C(N)[C@H](C)CC)nn3)CC2)nc(N2CCN(C(=O)[C@H](CC(N)=O)n3cc(C(N)[C@@H](C)CC)nn3)CC2)n1 (some centres not stated) | -16% | -10% | -1%
Cc1ccc(OCCC(=O)Nc2ccc(S(=O)(=O)N3CCCC3)cc2)cc1 | -20% | 6% | -10%
Cc1c(NC(=O)Nc2ccc(Cl)cc2Cl)c(=O)n(-c2ccccc2)n1C | -18% | -5% | 0%
C#CCOCCOCCOCCNc1nc(N2CCN(C(=O)[C@H](CO)n3cc([C@@H](N)C(C)C)nn3)CC2)nc(N2CCN(C(=O)[C@H](CCC(=O)O)n3cc([C@@H](N)[C@H](C)CC)nn3)CC2)n1 | -13% | -7% | 2%
COc1ccc(C(=O)[C@@H]2CC[C@](C)(C(=O)O)C2(C)C)cc1 | 0% | 7% | -3%
CCCNC(=O)C(Cc1ccccc1)NC(=O)c1ccccc1 (configuration not stated) | 2% | -15% | -6%
COc1ccc(/C=C/C2=CC(C)(C)NC(=S)N2)cc1OC | -4% | 3% | 4%
COc1cccc(NC(=O)CS(=O)(=O)c2cn(CC(=O)N3CCOCC3)c3ccccc23)c1 | 9% | -1% | 6%
CCOc1ccc2oc(C(=O)OCC(=O)N3C(C)CCCC3C)c(C)c2c1 (configuration not stated) | ? | -11% | 2%
CC(OC(=O)COc1ccccc1)C(=O)NC1CCCC1 (configuration not stated) | -15% | 0% | 0%
O=C(C1CC1)N1N=C2CCCCC2C1(O)C(F)(F)F (configuration not stated) | -6% | 1% | -3%
CCC1Nc2ncnc(N3CCCCC3)c2N(Cc2ccccc2)C1=O (configuration not stated) | -20% | -5% | -23%
CCOC(=O)C1=CN(Cc2ccco2)S(=O)(=O)NC1c1ccc(C(F)(F)F)cc1 (configuration not stated) | -22% | -6% | -6%
Nc1c(C(=O)CSc2ccccn2)c(=O)[nH]c(=O)n1C1CC1 | 31%[activator] | -6% | 3%
CC(=O)NS(=O)(=O)c1ccc(N2C(=O)c3ccccc3C2=O)cc1 | -16% | -2% | 0%
CCc1cc(Cn2nc(-c3ccccc3)cc2C(=O)NCc2cccs2)on1 | 6% | -2% | 1%
c1ccc2c(C3CCO3)cccc2c1 (configuration not stated) | -6% | -8% | -1%
COc1cc(OC)cc(C(=O)OCC(=O)NCc2ccco2)c1 | -19% | 5% | 3%
CCOC(=O)CCCCCC(=O)Nc1ccc2c(c1)CC(=O)N([C@@H](C)CO)C[C@H](C)[C@@H](CN(C)C(=O)Nc1ccc3c(c1)OCO3)O2 | -7% | -22% | -40%
O=C(NCc1ccccc1CN1CCCC1)c1ccc(OCc2cscn2)cc1 | -17% | -8% | -8%
S=C(NCCN1CCOCC1)Nc1ccc(-c2nc3ccccc3[nH]2)cc1 | 4% | -12% | -3%
COc1ccc(C(CNC(=O)COc2ccccc2)N2CCCCC2)cc1 (configuration not stated) | -14% | -7% | 11%
CCN1C(=O)[C@H]2[C@@H](c3ccc(-c4ccccc4)cc3)N[C@@](Cc3ccccc3)(C(=O)OC)[C@H]2C1=O | 0% | -11% | 3%
O=C(NCc1ccccc1C(F)(F)F)c1cccc2c1C(=O)c1ccc(N3CCOCC3)cc1S2(=O)=O | 4% | 9% | 1%
O=[N+]([O-])c1cccc(NC(=S)N2CCc3ccccc3C2)c1 | 70%[activator] | 9% | -1%
O=[N+]([O-])c1cc([N+](=O)[O-])c(Oc2cc(F)cc(F)c2)cc1NN1CCCCC1 | 3% | -5% | -9%
O=C(Nc1cccc(S(=O)(=O)N2CCOCC2)c1)C1CCN(S(=O)(=O)c2ccccc2)CC1 | ? | 12% | 4%
Cc1ccc(C2=NN(S(=O)(=O)c3ccccc3)C(c3ccco3)C2)cc1 (configuration not stated) | -27% | 1% | 0%
CC[C@@H](C)[C@@H]1CN([C@@H](CN2CCC[C@H]2CN2C(N)=NC[C@H]2C(C)C)C(C)C)C(=N)N1CCCC1CCCC1 | -8% | 1% | 9%
Cc1cc(NC(=O)c2ccc(Cl)cc2Cl)n(-c2ccccc2)n1 | 9% | 3% | -11%
O=C(Nc1cccc(Cl)c1)c1nc[nH]c1C(=O)NCCCCNC(=O)c1[nH]cnc1C(=O)Nc1cccc(Cl)c1 | 5% | 26% | -8%
CCN(CC)CCNC(=O)c1ccc(NC(=O)c2cc(-c3ccncc3)nc3ccccc23)cc1 | -20% | 8% | 2%
COc1ccccc1-c1sc2cc3c(cc2c1-c1ccc(OCCN2CCCCC2)cc1)OCO3 | ? | -9% | -35%
O=C1C(=O)N(Cc2ccccc2)C(=O)N1CCN1C(=O)c2ccccc2C1=O | 20% | 11% | 0%
C=C1C[C@@]23CCC4[C@@](C)(CCC[C@@]4(C)C(=O)OC)C2CC[C@]1(OC(C)=O)C3 (some centres not stated) | ? | 1% | 8%
O=C(COc1ccccc1C(=O)NCc1ccccc1)Nc1ccccc1 | -10% | 3% | -5%
Cc1[nH]c2ccccc2c1SCC(=O)NC1CCCCC1 | 14% | 5% | -4%
COc1ccc(S(=O)(=O)NCc2ccncc2)cc1NC(=O)c1ccccc1F | 34%[activator] | -6% | -2%
CCN(Cc1nc2ccccc2c(=O)[nH]1)C(=O)c1cccc(S(=O)(=O)N2CCc3ccccc32)c1 | ? | 2% | 2%
Cc1nn(CC(=O)N2CCN(S(=O)(=O)c3ccccc3)CC2)c(C)c1[N+](=O)[O-] | -16% | 1% | 0%
COc1cc(C(=O)OCC(=O)N2CCCCCC2)c([N+](=O)[O-])cc1OC | -10% | 1% | 5%
CC(=O)c1cccc(NC(=O)CN2C(=O)NC(C)(c3ccc4c(c3)OCCCO4)C2=O)c1 (configuration not stated) | ? | -8% | 1%
N#CCCN(C(=O)CSc1nc2ccccc2c(=O)[nH]1)c1ccc(F)cc1 | -1% | -1% | 4%
Cc1cc(NC(=O)CN2CCC(C)CC2)no1 | -18% | -2% | 2%
Cc1ccccc1C(=O)NNC(=O)c1ccc(Br)cc1 | -18% | -13% | -2%
O=C(CCCC(=O)c1ccc(O)cc1)c1ccc(O)cc1 | 34%[activator] | -3% | 7%

Single records, as listed above. Values in the order: 2A StopGo | RE007 growth inh | SARS PLpro yeast
COc1cc(C(=O)OCC(=O)N2CCCCCC2)c([N+](=O)[O-])cc1OC across the screens: -10% | 1% | 5%
Cc1[nH]c2ccccc2c1SCC(=O)NC1CCCCC1 across the screens: 14% | 5% | -4%
Cc1ccccc1C(=O)NNC(=O)c1ccc(Br)cc1 across the screens: -18% | -13% | -2%
CC(=O)c1cccc(NC(=O)CN2C(=O)NC(C)(c3ccc4c(c3)OCCCO4)C2=O)c1 (configuration not stated) across the screens: ? | -8% | 1%
CCN(Cc1nc2ccccc2c(=O)[nH]1)C(=O)c1cccc(S(=O)(=O)N2CCc3ccccc32)c1 across the screens: ? | 2% | 2%

More structures follow:
SMILES | 2A StopGo | RE007 growth inh | SARS PLpro yeast
CCC1Nc2ncnc(N3CCOCC3)c2N(Cc2ccc(Br)cc2)C1=O (configuration not stated) | -23%&12% | -15%&11% | -4%
Cn1cncc1C#Cc1ccc2cc(C(C)(C)O)oc(=O)c2c1 | -1% | -17% | 2%
CCOC(=O)c1ccc(NC(=O)CN2C(=O)NC3(CCCCCCC3)C2=O)cc1 | ? | -14% | 7%
N#Cc1ccc(CN2CCN(C(=O)CNS(=O)(=O)c3ccc4c(c3)OCCCO4)CC2)cc1 | -25% | 8% | 1%
Cc1cccc(OCCCC(=O)NNC(=O)c2ccc(F)cc2)c1 | -8% | -3% | 2%
CC(Oc1ccc(Cl)cc1)C(=O)Nc1cccc(S(=O)(=O)N2CCOCC2)c1 (configuration not stated) | 7% | -4% | -2%
CC(C)NC(=O)N(C)C[C@H]1Oc2ccc(NC(=O)CCC(F)(F)F)cc2C(=O)N([C@H](C)CO)C[C@@H]1C | 5% | 8% | -2%
Cc1c(C2(O)CCCCC2)[nH]c2cc(C(F)(F)F)ccc12 | ? | ? | -42%
COc1ccc(OC)c(NC(=O)COC(=O)c2c(C)noc2C)c1 | -16% | 16% | -8%
O=C(c1ccc(N2CCCC2=O)cc1)N1CCN(c2ccccc2O)CC1 | ? | 13% | -6%
COc1ccccc1C(CNC(=O)CNC(=O)c1ccccc1Cl)N1CCCC1 (configuration not stated) | -11% | -12% | -9%
Cc1sc2nc(CSCC(=O)Nc3ccc(C(=O)N(C)C)cc3)[nH]c(=O)c2c1C | -5% | 8% | 0%
O=C(NCc1ccccc1)c1onc(CSc2ccc(Cl)cc2)c1C(=O)NCC1CC1 | -14% | -14% | 6%
Cc1cc(C(=O)Nc2ccc(C)c(S(=O)(=O)N3CCOCC3)c2)c2ccccc2n1 | -4% | -12% | -2%
NS(=O)(=O)c1ccc(CCNC(=O)/C=C/c2ccccc2[N+](=O)[O-])cc1 | -24% | -4% | 1%
O=C(c1cn(-c2ccccc2)nc1-c1cccnc1)N1CCN(S(=O)(=O)c2cccc(F)c2)CC1 | -23% | 4% | -4%
COc1ccc(NC(=O)c2ccc([N+](=O)[O-])cc2[N+](=O)[O-])c(OC)c1 | 0% | 4% | -2%
Cc1cc(NC(=O)c2ccc(C#N)cc2)n(-c2ccccc2)n1 | 2% | -2% | 5%
COc1ccccc1C(=O)OCC(=O)N1CCC(Cc2ccccc2)CC1 | 26% | -6% | -6%
CN1/C(=C\C(=O)COC(=O)c2ccco2)C(C)(C)c2ccccc21 | ? | 1% | -8%
Cc1ccc(S(=O)(=O)N2CCOCC2)cc1C(=O)OCC(=O)c1ccc(Br)cc1 | 0% | 12% | 1%
CCc1nnc(NC(=O)c2cc(S(=O)(=O)N3CCCCC3)ccc2C)s1 | -25% | 7% | 1%
CCCOc1ccc(C=Nc2ccc(OC)c(S(=O)(=O)N3CCOCC3)c2)c(O)c1 | -30% | 5% | 7%
CC1CC(CC(=O)NNc2nc(-c3ccccc3)cs2)C(=O)O1 (configuration not stated) | 0% | 12% | 1%
Cc1cccc([C@@H]2[C@@H]3C(=O)N(Cc4ccccc4)C(=O)[C@@H]3[C@]3(C)C(=O)N(c4cccc(F)c4)C(=O)N23)c1 | -9% | 1% | -8%
Cc1ccc(C(=O)NCC(=O)OCC(=O)c2ccccc2)s1 | 4% | 1% | -3%
COc1ccc2c(-c3ccc(S(N)(=O)=O)cc3)c(-c3ccc(S(C)(=O)=O)cc3)sc2c1 | -5% | 4% | -3%
COc1cccc(OCC(=O)NC2CCCCCC2)c1 | 44%[activator] | 7% | -5%
Cc1ccc2nc(COC(=O)c3cnccn3)cc(=O)n2c1 | -12% | 7% | 0%
COc1ccc2c(c1)C(c1ccccc1)NC(=O)C2 (configuration not stated) | -3% | 3% | 3%
Cc1cccc(C)c1NC(=O)CN(C)C(=O)c1ccc2c(=O)n3c(nc2c1)CCC3 | -14% | 6% | -10%
O=C1C(Cc2ccccc2)Nc2ncnc(N3CCOCC3)c2N1Cc1ccc(Br)cc1 (configuration not stated) | ? | 4%&2% | 2%
Cn1nnnc1SCC(=O)N1N=C(c2ccc(Cl)cc2)CC1c1ccco1 (configuration not stated) | -16% | 14% | 0%
NS(=O)(=O)c1ccc(Nc2ccc3nonc3c2[N+](=O)[O-])cc1 | -27% | 1% | 3%
COc1ccccc1CC(=O)Nc1ccc(S(=O)(=O)N(C)C2CCN(C)CC2)cc1 | -5% | 26% | 2%
CC(C)CC1NC(=O)N(CC(=O)Nc2cc(F)ccc2F)C1=O (configuration not stated) | -7% | 21% | -10%
O=[N+]([O-])c1ccc(Cc2nnc(-c3ccc(F)cc3)o2)cc1 | 55%[activator] | -13% | -4%
Cc1ccc(C)c(NC(=O)CCC(=O)NNS(=O)(=O)c2ccc(Cl)cc2)c1 | -3% | 0% | -9%
CCCC1(c2ccccc2)NC(=O)N(CC(=O)Nc2ccc(N3CCOCC3)cc2)C1=O (configuration not stated) | -20% | 0% | 4%
O=C(COC(=O)/C=C/c1ccc([N+](=O)[O-])cc1)NC(=O)NC1CCCCC1 | -7% | -19% | 1%
